Sa growth inh – inhibitors of Staphylococcus aureus growth at 42 °C; S. aureus RN4220 growth, OD600, 20 h; hits give low values; hit rate 0.53% among 170,000; relative growth, % (no concentration beside the values); AID 720641;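 active = growth at 42 °C up to 50% and 20 or more points under that at 30 °C, or under 10% at both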;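 note: 300 nL library stock went into each well; scaled to the means of positive and negative controls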
HCMV NEC inh – disrupts HCMV UL50-UL53 complex binding. HTRF UL50-UL53 interaction, normalized percent inhibition. inhibition, % (concentration not given with the values). hit rate 0.15% among 190,000;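 active = both replicates at 50% or more, plus weaker picks with an unusually low signal ratio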;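 note: stock transfer was 100 nL into about 20 µL; 0% = negative control wells and 100% = wells with untagged competitor protein; inactives centre near -12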
GIV-Gai inh – inhibitors of GIV GBA-motif binding to rat Galpha-i3. hit rate 0.42% among 210,000. Galpha-i3/FITC-GIV peptide fluorescence polarization, 90 min; hits give low values; scaled: aluminum fluoride 0%, vehicle 100%. percent of control (FP), % (test concentration not listed). P08753;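 active = replicate mean at 85% of control or lower, very high polarization wells dropped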;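 note: wells of about 15 µL received 100 nL stock; the first replicate is given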
Target sequence (P08753 whole entry, looked up): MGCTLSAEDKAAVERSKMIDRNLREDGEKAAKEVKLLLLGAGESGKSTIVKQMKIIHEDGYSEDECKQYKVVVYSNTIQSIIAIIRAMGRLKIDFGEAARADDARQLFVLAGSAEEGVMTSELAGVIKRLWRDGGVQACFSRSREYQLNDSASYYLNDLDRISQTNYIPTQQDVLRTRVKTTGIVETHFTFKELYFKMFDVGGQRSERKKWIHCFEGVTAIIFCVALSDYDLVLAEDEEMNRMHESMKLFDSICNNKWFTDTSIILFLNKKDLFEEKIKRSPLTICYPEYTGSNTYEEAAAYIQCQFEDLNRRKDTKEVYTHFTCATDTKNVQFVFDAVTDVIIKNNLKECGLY
Sa growth inh second temp – further read-out of Sa growth inh, marked with its call; relative growth, %; measured here: growth at 30 °C;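 optical density after 20 h as mean of two plates; 100% = untreated growth and lower means inhibition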
Numbers without * were called inactive; nt = no result given; & = joins results of further samples.

SMILES | Sa growth inh | Sa growth inh second temp | HCMV NEC inh | GIV-Gai inh
CC1(C(=O)Nc2nc3ccccc3s2)CCCC1 | 90 | 61 | -16 | nt
CNc1cccc2cccc(OC)c12 | 114 | 60 | -43 | nt
COc1ccccc1OCCN1CCN(c2ccccc2)CC1 | 69 | 84 | -1 | nt
Cc1cccc(CN2C(=O)/C(=C\c3ccc(C(=O)N4CCN(C)CC4)cc3)Oc3ccccc32)c1 | 109 | 74 | -36 | 100
O=C(COc1cccc(-c2nc(-c3ccccc3)no2)c1)N1CCOCC1 | nt | nt | -4 | 102
COc1ccc(C2C(C(=O)O)c3cc(OC)c(OC)cc3C(=O)N2c2ccc(OC)cc2)cc1 (stereo unspecified) | nt | nt | -24 | 96
CC1CCC2(CC1)NC(=O)N(NC(=O)CN1CCN(Cc3nc4ccccc4s3)CC1)C2=O (stereo unspecified) | 97 | 97 | -1 | nt
Cc1cc(=O)n(Cc2ccc(Cl)cc2)c2c1c(C)nn2-c1ccccc1 | 96 | 98 | nt | 104
CCN(CC)CCn1c(NC(=O)c2cc3c(s2)CCCC3)nc2ccccc21 | 95 | 92 | -38 | nt
COc1ccc(Br)cc1CNC(=O)CSc1cc(=O)n(C)c2ccccc12 | 102 | 92 | -26 | 104
CC1(C)CC(NC(=O)/C=C/c2ccccc2)CC(C)(C)N1 | 96 | 88 | -12 | 109
CCCCNC(=O)c1cccc(Nc2ccc(-c3cccc(C)c3)nn2)c1 | nt | nt | -24 | 102
Cc1nc(SCC(=O)NC(N)=O)c2c(-c3cccs3)csc2n1 | 73 | 88 | -27 | nt
Cc1cccc(COC(=O)c2nnn(-c3ccc(C)c(Cl)c3)c2C)c1 | nt | nt | -6 | 109
COc1ccc(OC)c(C2=NOC(C(=O)N3CCCc4ccccc43)C2)c1 (stereo unspecified) | 95 | 90 | nt | 105
CCc1cccc(C)c1NC(=O)N(C)C1CCCCC1 | 101 | 100 | 5 | 101
Cc1ccc(CN(C)C(=O)Cc2csc(-c3ccccc3)n2)o1 | 85 | 68 | -42 | nt
COc1cccc(NC(=O)NCCc2nnc(SC)n2C)c1 | 112 | 95 | 7 | 107
CCN1CCN(C(c2ccc(C)cc2)c2sc3nc(-c4ccco4)nn3c2O)CC1 (stereo unspecified) | 115 | 89 | nt | 100
CC(=O)NC1C(OC2CCCCC2)OC(CO)C(O)C1O (stereo unspecified) | 120 | 83 | -4 | 107
OC1CCNC(=S)N1c1ccccc1 (stereo unspecified) | 110 | 86 | -13 | 105
O=C(CSc1ccc(-c2ccc(F)cc2)nn1)N1CCOCC1 | 80 | 103 | 19 | 105
Cc1ccc(CC(=O)N2CCCC(c3nc4c(nnn4Cc4ccc(F)cc4)c(=O)[nH]3)C2)cc1 (stereo unspecified) | nt | nt | -17 | 103
O=C(Cn1ccc(=O)[nH]c1=O)NCc1ccc(Cl)cc1 | 106 | 97 | -7 | nt
C=CCN(CC=C)Cc1c(C)[nH]c2ccc(OCC)cc2c1=O | 104 | 106 | 8 | 104
Cc1n[nH]c(=O)nc1NCCN(C)C | 98 | 89 | -17 | nt
Cc1cc(-c2nc3ncccc3o2)ccc1NC(=O)C(C)(C)Oc1ccc(Cl)cc1 | 80 | 48 | nt | 97
CC(C)NCc1cc(=O)n2[nH]c(NCc3ccc(C(C)C)cc3)nc2n1 | nt | nt | 2 | 95
Cn1c(C(=O)NCCCN2CCCCC2)cc2sccc21 | 102 | 88 | -16 | 101
CCOC(=O)c1c(C)oc2nc(C)nc(NCc3ccc(F)cc3)c12 | 89 | 91 | nt | 113
Cc1ccc(N=Cc2ccco2)c(C)c1 | 91 | 66 | -6 | 140
CCC1C[N+]2(C)CCc3cc(OC)c(OC)cc3C2CC1=O (stereo unspecified) | 98 | 84 | -11 | nt
Cc1cc(NC(=O)c2cc(C(C)(C)C)oc2C)no1 | 102 | 94 | -4 | 104
CCOC(=O)c1cc(-c2ccccc2)[nH]c1N1CCCC1 | nt | nt | 0 | 105
CC1CN=C(c2ccccc2N)N1 (stereo unspecified) | 96 | 98 | -1 | 97
O=C1CSc2ccc(S(=O)(=O)NC3CCCC3)cc2N1 | nt | nt | -14 | 108
COC(=O)c1ccc(COc2ccccc2/C=N/O)o1 | 97 | 87 | -30 | 106
COc1ccc(-c2cn3c(n2)sc2cc(C(=O)NCCCN4CCCCCC4)ccc23)cc1 | 133 | 85 | nt | 107
COc1cc(SC)ccc1C(=O)OCC(=O)N(C1CCCCC1)C1CCS(=O)(=O)C1 (stereo unspecified) | 94 | 85 | -19 | nt
COc1ccc(-c2nc(CN3CCN(C(=O)c4ccc(Cl)cc4)CC3)c(C)o2)cc1 | nt | nt | -5 | 103
CC(C)Cn1c(=O)c2ccccc2n2c(CCC(=O)Nc3ccc(F)c(F)c3)nnc12 | 94 | 86 | -33 | 101
Cc1cccc(Cn2cc(S(=O)(=O)c3cccc(Cl)c3)c(=O)c3cc(F)c(N4CCOCC4)cc32)c1 | 120 | 98 | nt | 110
Cc1cc(C)cc(CC(C(=O)O)C(C)C(=O)NCc2ccccc2)c1 (stereo unspecified) | 126 | 82 | nt | 102
Cc1c(/C=N/NC(=O)COc2ccc(-c3ccccc3)cc2)cc(C#N)n1C | 79 | 82 | -27 | nt
COCCOC(=O)c1c(C)oc2ccc(OCC(=O)c3ccc(Br)cc3)cc12 | nt | nt | -22 | 104
CC(C)NC(=S)NCc1cnn(C)c1 | 123 | 95 | -5 | 108
COc1cc(-c2nc3sc4c(c3c(=O)[nH]2)CCCC4)ccc1OCCOCCOc1ccccc1C | nt | nt | -24 | 103
c1ccc(CN2CCN(c3ncnc4c3cnn4-c3ccccc3)CC2)cc1 | 111&86 | 89&80 | -23 | 100&100
Cc1ccnc(NC(=O)c2cc(-c3ccc(C)c(C)c3)n[nH]2)c1 | 107 | 94 | nt | 101
C=CCNC(=S)/N=c1\sccn1C | 112 | 75 | -13 | 96
CCC(=O)Nc1ccc2nc3c(=O)n(C)c(=O)n(C)c3nc2c1 | 94 | 90 | -152 | 102
COc1cccc(/C=C2\C(=O)NC(=O)N(c3cccc(OC)c3)C2=O)c1 | 106 | 87 | nt | 104
CNC(=O)COC(=O)c1cccnc1Nc1ccccc1F | 88 | 85 | -15 | nt
O=S(=O)(c1cccc2ccccc12)N1CCN(c2ccc(Cl)c(Cl)c2)CC1 | 103 | 98 | 13 | 105
Cc1ccc(CN(Cc2cccn2-c2nnc(N3CCCC3=O)s2)C(=O)Nc2ccccc2Cl)cc1 | 88 | 89 | 12 | 95
Cc1ccc(C(C)C)c(OCC(N)=O)c1 | 102 | 94 | 4 | 94
CC1(C)CC(OC(=O)CC#N)CC(C)(C)N1 | 72 | 84 | -1 | 115
OC(c1ccccc1)(c1ccccc1)C1CCN(C(=S)Nc2ccccc2)CC1 | 85 | 83 | nt | 95
CCOc1ccc(-n2nc3cc(C)c(NC(=O)c4cc(OCC)c(OCC)c(OCC)c4)cc3n2)cc1 | 103 | 102 | 0 | 107
O=C(O)COc1ccc(CN2CCCC2)cc1 | 107 | 81 | -2 | 109

Going on with the list.
SMILES | Sa growth inh | Sa growth inh second temp | HCMV NEC inh | GIV-Gai inh
CCn1cc2c(n1)-c1c(oc(C(=O)Nc3cccc(C)c3C)c1C)CC2 | 107 | 91 | -4 | 107
N#CS/C=C/C(=O)c1ccccc1 | 72 | 63 | 0 | 99
CCN(CC)c1ccc(C=C2C(=O)OC3(CCCC3)OC2=O)cc1 | 62 | 86 | 4 | -26*
COc1ccc(CN2CCCCC2CO)cc1Br (stereo unspecified) | 107 | 106 | -10 | 99
O=C(OCCCn1c(=O)[nH]c2ccccc21)c1ccc2c(c1)C(=O)N(Cc1ccco1)C2=O | 73 | 94 | -36 | nt
Nc1n[nH]c(-c2ccc(Br)cc2)n1 | 85 | 83 | nt | 98
COc1cccc(NS(=O)(=O)c2csc(C(N)=O)c2)c1 | 90 | 92 | -38 | 99
O=c1oc2ccccc2n1CCc1nc(-c2ccc(C(F)(F)F)cc2)no1 | 103 | 84 | -19 | 106
Cc1oc(-c2ccc(Cl)cc2)nc1CS(=O)CC(=O)N1CCN(c2cccc(C(F)(F)F)c2)CC1 (stereo unspecified) | 106 | 57 | nt | 98
COC(=O)c1c(-c2ccccc2)nn(-c2ccc(Cl)cc2)c1OC | 98 | 93 | 7 | nt
O=C(Nc1nccs1)c1ccc(N2C(=O)C3CCCCC3C2=O)cc1 (stereo unspecified) | nt | nt | -7 | 105
COc1ccc(N2C(=O)/C(=C/c3ccc(N(C)C)c([N+](=O)[O-])c3)C(=O)NC2=S)cc1 | nt | nt | -70 | 104
CCN(C(=O)Cn1nc(Cc2ccncc2)c2ccccc2c1=O)c1cccc(Cl)c1 | 103 | 84 | -40 | 104
CNC(=O)Cn1ncc2c(C)n(Cc3ccc(C)cc3)c(C)c2c1=O | 103 | 83 | -5 | 101
Clc1ccccc1CSc1nnc(COc2ccccc2)n1Cc1ccco1 | 57 | 55 | -1 | nt
O=C(C1Nc2cc(F)ccc2S(=O)(=O)N1)N1CCN(c2ccccc2)CC1 (stereo unspecified) | nt | nt | 1 | 111
Cc1cccc(NC(=O)c2cnc3sc(N4CCCC4)nn3c2=O)c1C | 104 | 91 | nt | 111
N#Cc1c(N)nc2c(c1-c1ccccc1Cl)CCC2 | 114 | 112 | -2 | 103
Cc1ccc(Cl)cc1NC(=O)Nc1cccc(OCc2cc(=O)n3ccccc3n2)c1 | 97 | 95 | nt | 112&129
O=C(CN1CCc2ccccc2C1)NCCCc1ccccc1 | 111 | 80 | 6 | nt
CCNc1c(NS(=O)(=O)CC)c(=O)oc2ccccc12 | 101 | 89 | nt | 100
Cc1cccc(-c2nnc(SCC(N)=O)n2C2CCCCC2C)c1 (stereo unspecified) | 101 | 101 | -16 | nt
Cc1cc(C)nc(-n2nc(C)c3c2N(C)C(=O)CC3c2ccc(Cl)cc2)n1 (stereo unspecified) | 103 | 99 | -6 | 99
COc1cc(=O)n(-c2ccccc2)nc1C(=O)NC(C)(C)C | nt | nt | 1 | 97
CCCCS(=O)c1sc(C(=O)OCC)c2c1C(=O)CCC2 (stereo unspecified) | 59 | 55 | -53 | 104
CCc1ccccc1NC(=O)CN1C(=O)c2ccccc2Sc2ncccc21 | 97 | 95 | nt | 99
CN(C(=O)c1ccc(Br)cc1)C1CCCCC1 | 109 | 120 | -13 | 97
CSc1nn(Cc2ccccc2C)c(NC(C)=O)c1S(=O)(=O)c1ccc(C)cc1 | 101 | 86 | nt | 103
CCCc1nc(SCC(=O)N(CC)CC)c2ccccc2n1 | 83 | 87 | -28 | 103
CCn1cc2nc(SCC(=O)Nc3cc(OC)cc(OC)c3)n(Cc3ccc(Cl)cc3)c(=O)c2n1 | 98 | 85 | -8 | 102
COc1ccc(NC(=O)CC2C(=O)N(c3cccc(OC)c3)C(=O)N2CCC2=CCCCC2)cc1 (stereo unspecified) | 105 | 92 | 16 | 105
CCOC(=O)C1CCC(CN(Cc2ccccc2)S(=O)(=O)c2ccc(Cl)cc2)CC1 (stereo unspecified) | 141 | 96 | nt | 97
O=C(O)CCSc1nnc(-c2ccncc2)n1-c1ccccc1 | 102 | 97 | -2 | 105
CCOC(=O)Cn1c(=NC(=O)CN2C(=O)CCC2=O)sc2cc(S(N)(=O)=O)ccc21 | 103 | 92 | -11 | 103
Cc1ccc2c(ccn3cc4c(c(=O)n(C)c(=O)n4C)c23)c1 | 99 | 93 | 0 | 98
CCCc1nnc(SCc2cc(=O)c3c(C)cc(C)cc3[nH]2)n1C | 82 | 87 | nt | 103
O=C(/C=C/c1nc2ccccc2o1)N1CCN(Cc2nc3ccccc3s2)CC1 | 80 | 87 | -42 | nt
CCCNC(=O)c1cc(Cl)c2c(c1)OCO2 | 100 | 95 | -18 | nt
COc1ccc(CCC(=O)Nc2ccc3nc(N4CCN(c5ncccn5)CC4)cc(C)c3c2)cc1 | 92 | 80 | -25 | 107
NC(=S)Nc1cccc(C(F)(F)F)c1 | 82 | 88 | -17 | nt

Of the compounds above, these have an aryl thioether with sulfur outside any ring:
SMILES | Sa growth inh | Sa growth inh second temp | HCMV NEC inh | GIV-Gai inh
COc1ccc(Br)cc1CNC(=O)CSc1cc(=O)n(C)c2ccccc12 | 102 | 92 | -26 | 104
Cc1nc(SCC(=O)NC(N)=O)c2c(-c3cccs3)csc2n1 | 73 | 88 | -27 | nt
COc1cccc(NC(=O)NCCc2nnc(SC)n2C)c1 | 112 | 95 | 7 | 107
O=C(CSc1ccc(-c2ccc(F)cc2)nn1)N1CCOCC1 | 80 | 103 | 19 | 105
COc1cc(SC)ccc1C(=O)OCC(=O)N(C1CCCCC1)C1CCS(=O)(=O)C1 (stereo unspecified) | 94 | 85 | -19 | nt
Clc1ccccc1CSc1nnc(COc2ccccc2)n1Cc1ccco1 | 57 | 55 | -1 | nt
Cc1cccc(-c2nnc(SCC(N)=O)n2C2CCCCC2C)c1 (stereo unspecified) | 101 | 101 | -16 | nt
CSc1nn(Cc2ccccc2C)c(NC(C)=O)c1S(=O)(=O)c1ccc(C)cc1 | 101 | 86 | nt | 103
CCCc1nc(SCC(=O)N(CC)CC)c2ccccc2n1 | 83 | 87 | -28 | 103
CCn1cc2nc(SCC(=O)Nc3cc(OC)cc(OC)c3)n(Cc3ccc(Cl)cc3)c(=O)c2n1 | 98 | 85 | -8 | 102
O=C(O)CCSc1nnc(-c2ccncc2)n1-c1ccccc1 | 102 | 97 | -2 | 105
CCCc1nnc(SCc2cc(=O)c3c(C)cc(C)cc3[nH]2)n1C | 82 | 87 | nt | 103
